VDR inhibitor: Inhibitors of the vitamin D receptor (VDR): qHTS; 0.93% of 400,000 active; VDR-SRC2-3 peptide fluorescence polarization, 2 h; Potency, µM, without a hit: max response, negative = inhibition, most hits filed as inhibitors; Vitamin D3 receptor (Homo sapiens), P11473; AID 504847, 2011; active means well fitted inhibition curve with a large enough effect; inconclusive means small, poorly fitted or top-dose-only effect, or another doubt; inactive means no such curve, though single readings can be large or run the other way; further: series mostly up to about 120 µM
Target sequence (P11473 whole entry, looked up): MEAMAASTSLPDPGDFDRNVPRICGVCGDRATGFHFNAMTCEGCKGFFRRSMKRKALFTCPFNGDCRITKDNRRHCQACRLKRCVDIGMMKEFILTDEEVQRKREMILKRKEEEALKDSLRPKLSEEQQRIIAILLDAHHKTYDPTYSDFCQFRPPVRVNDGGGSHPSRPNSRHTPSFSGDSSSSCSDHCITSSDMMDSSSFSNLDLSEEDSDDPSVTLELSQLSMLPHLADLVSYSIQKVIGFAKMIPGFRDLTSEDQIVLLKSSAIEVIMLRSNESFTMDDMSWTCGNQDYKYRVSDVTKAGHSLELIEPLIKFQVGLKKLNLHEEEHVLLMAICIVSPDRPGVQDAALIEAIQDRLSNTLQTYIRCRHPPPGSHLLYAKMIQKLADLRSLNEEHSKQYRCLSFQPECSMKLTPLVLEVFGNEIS
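FP read-out; VDR + SRC2-3 coactivator peptide; 23 nl compound by pintool; 2 h RT incubation; reagents held at 4 deg C, protected from light.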
* hit, by the source's call; ? = inconclusive; [ ] = dose if it differs, or a comment. On the % scale 0 is the no-effect control and ±100 the full control effect; potency means the concentration at half of the fitted maximal effect. Not all compounds are listed. The share of hits here may be higher or lower than overall.

SMILES	VDR inhibitor
CCN(C(=O)COC(=O)/C=C/c1c(C)nn(-c2ccccc2)c1C)C1CCS(=O)(=O)C1 (stereo unspecified)	-24%
Cc1nnc(NC(=O)CSc2nnc(CC(=O)Nc3ccccc3F)n2C)s1	0%
CCN(CC)S(=O)(=O)c1cc([N+](=O)[O-])ccc1NNC(=O)Nc1ccccc1	5%
COc1ccc(-c2nc3cnc(N4CCN(C)CC4)nc3n(Cc3cccs3)c2=O)cc1	-2%
CC(=O)c1ccc(NC(=O)CCCCCn2nnc3ccccc3c2=O)cc1	0%
S=c1[nH]nc(-c2ccco2)n1/N=C/C=C/c1ccco1	-15%
CCC(=O)c1ccc(OCC(=O)OCC(=O)NC2CCCC2)cc1	-5%
CC(C)c1ccc(NC(=O)C2CCC(CNS(=O)(=O)c3ccc4c(c3)CCCC(=O)N4)CC2)cc1 (stereo unspecified)	4%
COC(=O)c1ccccc1NC(=O)c1cc(-c2ccc(C)cc2)on1	2%
O=C(CCn1cnc2onc(-c3ccc(F)cc3)c2c1=O)N1CCN(c2ccccc2F)CC1	9%
O=C(CNC(=O)c1cccs1)NCCc1ccco1	-22%
Cc1nc(N2CCCCCC2)c2ccccc2n1	11%
O=C(CSc1ccccc1)Nc1ccc(Cl)c(S(=O)(=O)N2CCOCC2)c1	3%
COc1cccc(NC(=O)Nc2ccccc2C(N)=O)c1	-8%
O=C1c2cccnc2C(=O)N1Cc1ccc(S(=O)(=O)N2CCOc3ccccc32)cc1	-1%
CCOCCCNC(=O)C(c1ccc(C)cc1)N1CCOCC1 (stereo unspecified)	-10%
O=C(COC(=O)COc1ccc(Br)cc1)NCC1CCCO1 (stereo unspecified)	3%
Cc1ccc(S(=O)(=O)N2CCC(C(=O)OCC(=O)NCCc3ccccc3)CC2)cc1C	-13%
COC(=O)c1ccc(CSc2nnc(NC(C)C)s2)o1	4%
CCOP(=O)(CC(C(C)=O)C(O)c1ccccc1)OCC (stereo unspecified)	-12%
O=C(c1cccc(S(=O)(=O)N2CCOCC2)c1)N(Cc1ccc(F)cc1)Cc1ccco1	-8%
CCc1ccc(CNC(=O)c2cnc3c(C)cccn3c2=O)cc1	-10%
COc1ccc(OC)c(S(=O)(=O)Nc2ccc3c(c2)N(C(C)=O)CCC3)c1	1%
COc1ccc(C)cc1S(=O)(=O)N1CCN(S(=O)(=O)c2cc(C)ccc2OC)CC1	-13%
Cc1ccccc1C(=O)NC1CCN(Cc2ccccc2)CC1	5%
COc1ccc(-c2[nH]ncc2CN2CCN(C(=O)c3ccco3)CC2)cc1F	12%
COc1ccccc1Nc1c2c(nc3ccc(NC(=O)/C=C/c4cc(OC)c(OC)c(OC)c4)cc13)CCCC2	49%[activator]
O=S(=O)(Nc1ccc(-c2ccc3nncn3n2)cc1)c1ccccc1Cl	-8%
Cc1ccc(CNC(=O)c2ccc3c(c2)nc(C)n3-c2cc(C)cc(C)c2)cc1	-3%
CCC1CCCCN1C(=O)CSc1nnc(-c2ccc3c(c2)OCCO3)o1 (stereo unspecified)	5%

Next section, starting with the last 4 of the part before.
SMILES	VDR inhibitor
COc1ccccc1Nc1c2c(nc3ccc(NC(=O)/C=C/c4cc(OC)c(OC)c(OC)c4)cc13)CCCC2	49%[activator]
O=S(=O)(Nc1ccc(-c2ccc3nncn3n2)cc1)c1ccccc1Cl	-8%
Cc1ccc(CNC(=O)c2ccc3c(c2)nc(C)n3-c2cc(C)cc(C)c2)cc1	-3%
CCC1CCCCN1C(=O)CSc1nnc(-c2ccc3c(c2)OCCO3)o1 (stereo unspecified)	5%
NC(=O)COC(=O)c1cc(-c2ccco2)nc2ccccc12	-8%
COc1ccccc1NC(=O)CCc1c(C)nc2c(-c3ccc(F)cc3)c(C)nn2c1C	1%
CCOC(=O)c1c(-c2ccccc2)oc2cc(CN(C)C)c(O)c(CN(C)C)c12	8%
CC(=O)OCC1=C(C(=O)O)N2C(=O)C(NC(=O)CC(C)c3ccccc3)C2SC1 (stereo unspecified)	-3%
O=C(CO/N=C/c1ccccc1O)N1CCc2ccccc21	-12%
Cc1ccc(OCC(=O)Nc2ccc(F)cc2)cc1	9%
N#CC1(C#N)CC(C=O)=C(N)C1(C#N)CC(=O)c1ccc(F)cc1 (stereo unspecified)	-9%
CCOC(=O)c1ccc(N(CC2CO2)S(=O)(=O)c2ccc(C)cc2)cc1 (stereo unspecified)	-2%
CCN(CC)C(=O)C1CCN(S(=O)(=O)c2ccc3c(c2)CCCN3C(=O)C2CCC2)CC1	-2%
COc1ccc(/C(N)=N/OC(=O)Oc2ccccc2)cc1	10%
CCOC(=O)c1nccnc1C(=O)Nc1ccc(C(F)(F)F)cc1	-1%
Cc1noc(C)c1NC(=O)Nc1ccc2c(c1)C(=O)N([C@H](C)CO)C[C@H](C)[C@@H](CN(C)C(=O)Nc1ccc(C(F)(F)F)cc1)O2	-6%
CCOc1ccccc1Nc1nc(N)nc(CSc2nncn2C)n1	4%
CCOc1cc(C(=O)OCc2cc(=O)n3nc(C4CC4)sc3n2)cc(OCC)c1OCC	4%
Cc1cc(Cl)ccc1NC(=O)CCN1C(=O)NC(C)(C)C1=O	-7%

Arranged by formula weight (lowest first): 3 of the compounds above
SMILES	VDR inhibitor
COc1ccc(/C(N)=N/OC(=O)Oc2ccccc2)cc1	10%
CCOc1ccccc1Nc1nc(N)nc(CSc2nncn2C)n1	4%
COc1ccccc1NC(=O)CCc1c(C)nc2c(-c3ccc(F)cc3)c(C)nn2c1C	1%

Next records.
SMILES	VDR inhibitor
O=C(Nc1cc(Cl)ccc1Cl)C1CC(=O)N(c2ccccc2)C1 (stereo unspecified)	6%
Cc1cc(C)c(S(=O)(=O)N2CCN(C(=O)c3cc4ccccc4o3)CC2)c(C)c1	11%
S=C(NCc1ccccc1)N1CCN(C2CCCCC2)CC1	?
COCCCNC(=O)/C(=C\c1cccn1C)NC(=O)c1cccs1	-14%
O=C(c1ccc(Cl)c(F)c1F)N1CCOCC1	8%
CCCn1c(SCC(=O)NC)nc2sc3c(c2c1=O)CCC3	-3%
CCSc1nc2n(n1)C(c1ccc(C(=O)O)cc1)C(C(=O)Nc1ccccc1C)=C(C)N2 (stereo unspecified)	5%
Cc1ccc(N/C=C2\CCCCC2=O)nc1	-9%
C[C@@H](CN1C2=NC[C@H](Cc3ccccc3)N2C[C@H]1Cc1ccc(O)cc1)NC(=O)CCC1CCCCC1	-16%
Cc1cccc(Nc2nc(-c3ccc(O)c(O)c3)cs2)n1	-14%
CC(=O)c1ccc(NS(=O)(=O)c2ccc3c(c2)NC(=O)CCS3)cc1	0%
CCOC(=O)COn1c(-n2nc(C)cc2C)nc2ccccc2c1=O	-7%
CN1CCN(C(=O)C2CCN(S(=O)(=O)c3ccc4c(c3)oc(=O)n4C)CC2)CC1	5%
O=C(NCC(c1ccco1)N1CCc2ccccc2C1)c1cccc(F)c1 (stereo unspecified)	7%
CC1CCCCC1NC(=O)C1CCN(S(=O)(=O)N2CCCCCC2)CC1 (stereo unspecified)	-10%
COc1ccc(-c2cc(-c3ccccc3)nc(SCC(=O)Nc3ccccc3F)c2C#N)cc1	2%
Cc1cc(S(=O)(=O)Nc2cccc([N+](=O)[O-])c2)c(C)s1	17%
O=C(Oc1ccc(N2C(=O)CCC2=O)cc1)c1ccccc1Cl	-7%
Cc1cccc(OCc2nnc(SCC(=O)NCCc3ccccc3)o2)c1	-9%
COc1ccc(NC(=O)CCCc2nnc3n(C(C)C)c(=O)c4sccc4n23)cc1Cl	15%
Cc1ccc(S(=O)c2snnc2C)cc1 (stereo unspecified)	1%
c1ccc(CCCNc2ncnc3nc[nH]c23)cc1	-5%
C=C(C)Cn1c(SCC(=O)Nc2cccc(Cl)c2)nc2sc3c(c2c1=O)CCCC3	-9%
CN1C(=O)/C(=C/c2ccc(O)c([N+](=O)[O-])c2)NC1=S	8%
COc1ccc(S(=O)(=O)N2CCC(C(=O)N[C@@H](C)C(=O)NC3CCCC3)CC2)cc1	?
CCCN(CCC)S(=O)(=O)c1ccc2c(c1)N(CC(=O)NCc1ccc(F)cc1Cl)C(=O)CS2	10%
CC1CC(C)CN(S(=O)(=O)c2ccc(C(=O)Nc3nnc(-c4cccs4)o3)cc2)C1 (stereo unspecified)	1%
COc1cc(/C=N/NC(=O)Nc2cccc3nsnc23)cc(OC)c1OC	-2%
Cc1onc(-c2ccncc2)c1C(=O)O	-2%
CN1C2CCC1CC(NC(=O)CSc1ccc(Cl)cc1)C2 (stereo unspecified)	-18%
COc1ccccc1-c1cn[nH]c1-c1ccc(OCc2ccc(F)cc2)cc1O	-7%
CC(Oc1ccc(Br)cc1)C(=O)N1CCC(C(N)=O)CC1 (stereo unspecified)	-5%
CCn1c(CC(=O)Nc2ccc(C)c(Cl)c2)nnc1SCC(=O)Nc1nc(C)cs1	10%
N#CNC(=Nc1ccc(Cl)cc1)Oc1ccccc1	8%
Cc1ccccc1OCCC(=O)OCC(=O)NCCNC(=O)COC(=O)CCOc1ccccc1C	-14%
O=C(C(=O)N1CCOCC1)c1cn(CC(=O)N2CCCCC2)c2ccccc12	-7%
c1ccc(OCCCCn2cnc3ccccc32)cc1	2%
CCc1ccccc1NC(=O)CNC(=O)c1ccccc1OCc1c(C)noc1C	-14%
O=C(/C=C/c1ccccc1Cl)NC1CCS(=O)(=O)C1 (stereo unspecified)	?
O=C(CC(c1ccccc1)c1cc(Cl)ccc1O)N1CCOCC1 (stereo unspecified)	2%
O=C(Nc1ncc2c(n1)-c1ccccc1CC2)c1cccs1	19%
CCCN1C(=O)C(O)(CC(=O)c2cccc(OC)c2)c2ccccc21 (stereo unspecified)	?
CCOC(=O)c1c(-c2ccccc2)oc2cc(Br)c(O)c(C=O)c12	-4%
COc1ccc(N2CCN(C(=O)CCn3nnc4ccccc43)CC2)cc1	6%
COc1ccccc1C(=O)Nc1ccon1	12%
O=C(O)c1cccc(-n2c(-c3cnccn3)n[nH]c2=S)c1	-8%
O=C(COC(=O)c1ccccc1Nc1cccc(C(F)(F)F)c1)NCc1ccco1	-18%
COc1ccc(NC(=O)CN(C)CC(=O)N2CC(=O)Nc3ccccc32)cc1	5%
O=C(c1ccccc1)c1ccc(-n2cnnc2)c([N+](=O)[O-])c1	-5%
O=C(CNS(=O)(=O)c1cccc2nsnc12)NCCc1ccccc1	?
CC(=O)NC(CCS(C)(=O)=O)C(=O)Nc1ccccc1C (stereo unspecified)	9%
Cc1ccc(NC(=O)Cn2c(=O)n(CCCCC(=O)NCCc3ccccc3)c(=O)c3ccccc32)cc1	-3%
O=C1c2ccccc2NC(c2ccccc2O)N1c1ccc(F)cc1 (stereo unspecified)	19%
CCc1ccc(/C=N/n2c(C3CCCCC3)n[nH]c2=S)cc1	?
COc1ccc(Cl)cc1NC(=O)c1oc2ccc(S(=O)(=O)N3CCCCC3)cc2c1C	25%
Cc1ccc(-c2nc(-c3ccncc3)no2)cc1	-5%
CN(CC(=O)Nc1ccc(Cl)cc1)C(=O)c1ccc(S(=O)(=O)Nc2ccccc2)cc1	3%
COc1ccc(N(CCC#N)C(=O)/C(C#N)=C/c2cccs2)cc1	-9%
Cc1nc(SCC(=O)NCC2CCCO2)c2c(C)c(C)sc2n1 (stereo unspecified)	-9%
COc1ccc(N2CCN(C(=O)c3cn(C4CCCCC4)c(=O)c4c3c3ccccc3n4C)CC2)cc1	-3%

The last 6 compounds of the part before are carried over, then new ones follow.
SMILES	VDR inhibitor
COc1ccc(Cl)cc1NC(=O)c1oc2ccc(S(=O)(=O)N3CCCCC3)cc2c1C	25%
Cc1ccc(-c2nc(-c3ccncc3)no2)cc1	-5%
CN(CC(=O)Nc1ccc(Cl)cc1)C(=O)c1ccc(S(=O)(=O)Nc2ccccc2)cc1	3%
COc1ccc(N(CCC#N)C(=O)/C(C#N)=C/c2cccs2)cc1	-9%
Cc1nc(SCC(=O)NCC2CCCO2)c2c(C)c(C)sc2n1 (stereo unspecified)	-9%
COc1ccc(N2CCN(C(=O)c3cn(C4CCCCC4)c(=O)c4c3c3ccccc3n4C)CC2)cc1	-3%
Cc1nc2ccc(Br)cn2c1C(=O)N/N=C\c1ccccc1Cl	5%
CC1(C)CC2CC(C)(CN2C(=O)CN2C(=O)c3ccccc3C2=O)C1 (stereo unspecified)	-7%
Cc1cc(NCc2ccccn2)n2ncc(-c3ccc(Cl)cc3)c2n1	0%
CCOC(=O)CC(NC(=O)Cn1nnc(-c2ccccc2C)n1)c1ccc(OC)cc1 (stereo unspecified)	3%
Cc1onc(NC(=O)c2ccc(Cl)cc2Cl)c1Br	-1%
COc1cccc(COC(=O)CCNC(=O)c2ccc(Cl)cc2)c1OC	-20%
CCCN1CCC(=NNc2ccc(S(=O)(=O)N3CCOCC3)cc2[N+](=O)[O-])CC1	8%
Cc1ccc(N2C(=O)N(CC(=O)NC(c3ccccc3)c3ccccc3)C(=O)C2C)cc1 (stereo unspecified)	14%
CC(C)(Oc1ccc(Cl)cc1)C(=O)Nc1ccc2oc(-c3ccncc3)nc2c1	21%
O=C(Cc1cccc2ccccc12)NNC(=O)Nc1ccc(Cl)cc1	14%
CCOC(=O)c1[nH]c(C)c(C(=O)N2CCN(C(=O)OCC)CC2)c1CC	18%
O=C(c1ccc2c(c1)N(Cc1cccc(Cl)c1)C(=O)c1ccccc1S2)N1CCOCC1	2%
Cc1ccccc1NC(=O)C(=O)NCc1ccccn1	0%
COc1ccc(-n2ncc3c2CC(C)(C)CC3NC(=O)C2CCN(C(C)=O)CC2)cc1 (stereo unspecified)	4%
COc1ccc(C2Nc3ccccc3C(=O)N2Cc2ccccc2)cc1OC (stereo unspecified)	4%
CCOc1ccccc1Nc1nc2ccccc2c2nncn12	-20%
NC(=O)CC(NC(=O)c1ccccc1)c1ccc(N2CCN(c3ccccn3)CC2)c([N+](=O)[O-])c1 (stereo unspecified)	?
CCC1SC2=NC(C)=C(C(=O)OCCOC)C(c3ccc(C(=O)OC)cc3)N2C1=O (stereo unspecified)	-8%
COc1ccc(OC)c(/C=C(\C)C(=O)c2c(C)cc(C)[nH]c2=O)c1	-7%

Screening data (PubChem BioAssay)
